Screening data from PubChem.
GIRK2 act: opens human GIRK2 potassium channels; HEK293-GIRK2 thallium flux, Thallos fluorescence; AID 1259325; calls only for hits at 25 µM; 0.05% of 63,000 active;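 active means among the strongest 0.2% of first-round signals and kept after retests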;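 further: first round at about 10 µM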
Target sequence (P48051 whole entry, looked up): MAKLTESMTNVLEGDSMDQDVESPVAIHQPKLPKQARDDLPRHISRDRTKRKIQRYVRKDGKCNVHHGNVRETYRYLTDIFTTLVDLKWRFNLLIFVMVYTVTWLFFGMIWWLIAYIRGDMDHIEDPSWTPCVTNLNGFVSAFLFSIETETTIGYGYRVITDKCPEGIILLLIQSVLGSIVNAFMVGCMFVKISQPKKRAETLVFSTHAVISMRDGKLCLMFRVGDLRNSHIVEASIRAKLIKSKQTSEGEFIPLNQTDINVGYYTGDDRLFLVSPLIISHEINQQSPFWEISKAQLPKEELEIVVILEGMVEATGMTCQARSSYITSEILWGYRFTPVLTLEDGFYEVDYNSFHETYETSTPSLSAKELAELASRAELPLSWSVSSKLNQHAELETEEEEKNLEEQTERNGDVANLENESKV
Calls only. This is a subset; the hit share may differ from the screen's.

`CCOC(=O)c1sc2ccccc2c1S(=O)(=O)Nc1ccc(F)cc1F` gave GIRK2 act inactive.
COCCCNC(=O)c1csc(-c2cnccn2)n1 was read as GIRK2 act inactive.
`CC(=O)NC1C(OC2CCC3(C)C(CCC4(C)C3CC=C3C5CC(C)(C)CCC5(C(=O)OC5OC(CO)C(O)C(O)C5O)CCC34C)C2(C)C)OC(COC2OCC(O)C(O)C2OC2OCC(O)C(O)C2O)C(O)C1O` (centres undefined) gave GIRK2 act inactive.
Screening CC(=O)Nc1ccc(NC(=O)C2=Cc3ccccc3OC2)cc1 returned GIRK2 act inactive.
Screening O=C(c1cccc(Br)c1)N1CCC2(CC1)OCCCO2 returned GIRK2 act inactive.
For CCOc1ccc(-c2noc(C3CCN(S(=O)(=O)c4ccc(OC)cc4)CC3)n2)cc1OC the results were GIRK2 act inactive.
Screening O=C(Cc1ccc(NC(=O)c2ccc(OC(F)(F)F)cc2)cc1)NCC(F)(F)F returned GIRK2 act inactive.
Screening Cc1cccc(OCC(O)Cn2ccnc2-c2ccccc2)c1 (centres undefined) returned GIRK2 act inactive.
COc1cc(-c2c(C#N)c(N)nc3c2c(C)nn3-c2ccc(C)cc2)cc(OC)c1OC was read as GIRK2 act inactive.
For O=C(CSc1nnc(CCc2nc3ccccc3s2)o1)Nc1ccon1 the results were GIRK2 act inactive.
Screening CNC(=O)Cc1csc(NC(=O)c2ccc(OCC(=O)C3CC3)cc2)n1 returned GIRK2 act inactive.
For CC(=O)Nc1ccc(SCCCC(=O)NCCCn2ccnc2)nn1 the results were GIRK2 act inactive.
`COc1ccccc1N1CCN(CCNC(=O)C(=O)Nc2cc(C)nc3ccccc23)CC1` gave GIRK2 act inactive.
For Cn1c(=O)[nH]c(=O)c2c1nc1n2CCCN1Cc1ccccc1 the results were GIRK2 act inactive.
For O=C(/C=C/c1ccco1)NCC(O)c1ccoc1 (centres undefined) the results were GIRK2 act inactive.
Screening CC(=O)c1sc(NC(=O)CCCOc2ccc(C(C)(C)C)cc2)nc1C returned GIRK2 act inactive.
Screening Cc1nc2sc(C(c3cccc(F)c3)N3CCC(Cc4ccccc4)CC3)c(O)n2n1 (centres undefined) returned GIRK2 act inactive.
`Cc1ccc(C)c2sc(N(CCN(C)C)C(=O)CCCS(=O)(=O)c3ccccc3)nc12` gave GIRK2 act inactive.
`COc1ccc(CCNC(=O)C(=O)c2cn(CC(=O)N3CCCC3)c3ccccc23)cc1` gave GIRK2 act inactive.
`CCOc1ccc2nc(NC(=O)c3ccc(-n4nc(C)cc4C)nn3)sc2c1` gave GIRK2 act inactive.
Screening Cc1cn2c3c(=O)n(Cc4ccccc4F)c(=O)n(C)c3nc2n1CCO returned GIRK2 act inactive.
CCCS(=O)(=O)N1CCCc2cc(NS(=O)(=O)c3cc(Cl)ccc3OC)ccc21 was read as GIRK2 act inactive.
For CC(C)(C)NC(=O)NCCOc1ccc(F)cc1 the results were GIRK2 act inactive.
`CC(C)(C)c1csc(CN2CCN(CC(=O)Nc3ccc(OC(F)(F)F)cc3)CC2)n1` gave GIRK2 act inactive.
For CSc1ccccc1NC(=O)CCCS(=O)(=O)Cc1ccccc1 the results were GIRK2 act inactive.
`Cc1ccc(S(=O)(=O)N2CCC(c3nnc(C4CC4)s3)CC2)cc1C` gave GIRK2 act inactive.
For Cc1cc(NS(=O)(=O)c2ccc(NC(=O)c3ccc(-n4ccnc4C)nn3)cc2)nc(C)n1 the results were GIRK2 act inactive.
Screening O=C(CN1C(=O)CCC1=O)N1CCN(C2=NN=C(c3ccccc3)CS2)CC1 returned GIRK2 act inactive.
`Cc1ccc(N2CC(C(=O)N3CCC4(CC3)OCCCO4)CC2=O)cc1C` (centres undefined) gave GIRK2 act inactive.
Screening O=C(NCCC(O)c1ccccc1)c1cc(-c2ccccc2)on1 (centres undefined) returned GIRK2 act inactive.
Screening NS(=O)(=O)c1ccc(CNC(=O)CCCn2cnc(-c3ccc(F)cc3)cc2=O)cc1 returned GIRK2 act inactive.
For CCN(CCCNC(=O)CCn1c(=S)[nH]c2cc3c(cc2c1=O)OCO3)c1ccccc1 the results were GIRK2 act inactive.
CCN1CCN(c2nc3c(c(=O)n(C)c(=O)n3C)n2CCCOc2ccccc2)CC1 was read as GIRK2 act inactive.
`CNC(=O)NC(=O)COc1cc(=O)n2cccc(C)c2n1` gave GIRK2 act inactive.
For CCc1cc(=O)[nH]c(-n2nc(C3CC3)cc2NC(=O)c2ccc(-c3ccccc3)cc2)n1 the results were GIRK2 act inactive.
Cc1nnc(NC(=O)C2CCC(CNS(C)(=O)=O)CC2)s1 (centres undefined) was read as GIRK2 act inactive.
CCn1c(SCC(=O)Nc2ccccc2C)nc2c3cc(OC)ccc3n(C)c2c1=O was read as GIRK2 act inactive.
Screening O=C(Cc1cccs1)N1CCN(c2ncnc3c2nnn3-c2ccccc2)CC1 returned GIRK2 act inactive.
Screening c1ccc2c(CCNc3ncnc4[nH]ncc34)c[nH]c2c1 returned GIRK2 act inactive.
Screening CCOC(=O)C(=O)N1CCN(c2ncnc3c2nnn3-c2ccccc2)CC1 returned GIRK2 act inactive.
`COc1ccc(N2C=C(C#N)S(=O)(=O)c3ccccc32)cc1Cl` gave GIRK2 act inactive.
Screening O=C(O)/C=C/c1ccc(O)c(O)c1 returned GIRK2 act inactive.
For CC(C)NC(=O)CCCCn1c(=O)c2ccccc2n(CC(=O)NCc2ccccc2Cl)c1=O the results were GIRK2 act inactive.
CNC(=O)Cn1c(NC)nc2c1c(=O)n(C)c(=O)n2C was read as GIRK2 act inactive.
`Cc1ccccc1OCC(=O)N1CCC(S(=O)(=O)Cc2ccco2)CC1` gave GIRK2 act inactive.
`CC(C)Cn1c(=O)[nH]c2c(C(=O)N3CCc4ccccc4C3)snc2c1=O` gave GIRK2 act inactive.
For COc1ccc(-c2cc3c(SCC(=O)NCCc4ccc(OC)c(OC)c4)nccn3n2)cc1 the results were GIRK2 act inactive.
Screening Cc1oncc1C(=O)NCC1CCN(C(=O)c2ccoc2)CC1 returned GIRK2 act inactive.
`Cc1[nH]nc(-c2ccc(O)cc2O)c1Oc1ccccc1Br` gave GIRK2 act inactive.
For COc1ccc(NC(=O)Cn2nc3ccc(-c4ccccc4)nn3c2=O)cc1Cl the results were GIRK2 act inactive.
`CSc1ncc(Cl)c(C(=O)N2CCN(c3cccc(C)c3C)CC2)n1` gave GIRK2 act inactive.
COc1ccc2c(c1)c(CC(=O)NCCc1ccc(F)cc1)c(C)n2C(=O)c1ccc(Cl)cc1 was read as GIRK2 act inactive.
Screening COc1ccc(CNC(=O)N2CCC(CSCc3ccco3)CC2)cc1 returned GIRK2 act inactive.
`O=C(CSc1nc(CC(=O)Nc2cc3ccccc3oc2=O)cs1)Nc1ccc(F)cc1` gave GIRK2 act inactive.
O=C(c1cccs1)N1CCCC(c2nnc(Cc3ccccc3)s2)C1 (centres undefined) was read as GIRK2 act inactive.
Screening COC(=O)c1cccc(Nc2nn3c(=O)c4cc(OC)c(OC)cc4nc3s2)c1 returned GIRK2 act inactive.
Screening CC12CCC(C(=O)Nc3cccnc3)(CC1=O)C2(C)C (centres undefined) returned GIRK2 act inactive.
COc1ccc(-c2csc(-c3nnn(-c4ccccc4Br)c3N)n2)cc1 was read as GIRK2 act inactive.
Screening COc1cccc2sc(N(C)CC(=O)Nc3cccc(OC(F)F)c3)nc12 returned GIRK2 act inactive.
`CCOc1ccc(NC2=CC(=NS(=O)(=O)c3ccc(OC)cc3)c3ccccc3C2=O)cc1` gave GIRK2 act inactive.

Reprinted from the part before: four compounds, followed by the next part.
Screening CC12CCC(C(=O)Nc3cccnc3)(CC1=O)C2(C)C (centres undefined) returned GIRK2 act inactive.
COc1ccc(-c2csc(-c3nnn(-c4ccccc4Br)c3N)n2)cc1 was read as GIRK2 act inactive.
Screening COc1cccc2sc(N(C)CC(=O)Nc3cccc(OC(F)F)c3)nc12 returned GIRK2 act inactive.
`CCOc1ccc(NC2=CC(=NS(=O)(=O)c3ccc(OC)cc3)c3ccccc3C2=O)cc1` gave GIRK2 act inactive.
CCN(CC)c1ccc(-c2noc(CN3CCN(c4ccc(Cl)cc4)CC3)n2)cn1 was read as GIRK2 act inactive.
Screening COC(=O)c1ccc(NC(=O)CCCn2nnc3ccccc3c2=O)cc1 returned GIRK2 act inactive.
CCOc1ccc(-n2nnc3c(=O)n(Cc4nc(-c5ccc(C(F)(F)F)cc5)no4)cnc32)cc1 was read as GIRK2 act inactive.
Screening COCCn1c(SCc2nc(-c3ccc(OC)cc3)oc2C)nc2ccccc2c1=O returned GIRK2 act inactive.
`Cc1cc(CNS(=O)(=O)c2ccc(N3CCCCS3(=O)=O)cc2)c(C)o1` gave GIRK2 act inactive.
CCOc1ccc(C(=O)NCC#CCOc2ccccc2OC)cc1 was read as GIRK2 act inactive.
CC1CCN(c2cc(NC(=O)CSc3ccncc3)ncn2)CC1 was read as GIRK2 act inactive.
Screening Cc1ccc2c(Nc3ccc4c(c3)OCO4)c(C(=O)N3CCCCC3C)cnc2n1 (centres undefined) returned GIRK2 act inactive.
`Cc1nc(SCC(=O)Nc2ccccc2C(F)(F)F)cc(-c2ccccn2)n1` gave GIRK2 act inactive.
`Cc1cc(NC(=O)Cn2nc(C3CCN(S(C)(=O)=O)CC3)n(-c3cccs3)c2=O)no1` gave GIRK2 act inactive.
For CCOC(=O)Cn1c(=O)c2c(nc3n(-c4ccc(C)cc4)c(C)cn23)n(C)c1=O the results were GIRK2 act inactive.
`Cc1cc(C)nc(Nc2nc(C(=O)NCCn3nc(-c4ccco4)ccc3=O)cs2)n1` gave GIRK2 act inactive.
Cc1c(C(=O)NCCn2nc(C(F)(F)F)n(C)c2=O)cnn1-c1ccccc1 was read as GIRK2 act inactive.
Cn1nc(-c2ccc(F)cc2)cc1C(=O)N1CCOC(c2ccccc2)C1 (centres undefined) was read as GIRK2 act inactive.
For Cc1cn2c3c(=O)[nH]c(=O)n(C)c3nc2n1CCN1CCN(C(=O)c2ccco2)CC1 the results were GIRK2 act inactive.
Cn1c(=O)[nH]c(=O)c2c1nc(NCCCCCC(=O)O)n2Cc1ccccc1 was read as GIRK2 act inactive.
Screening CCOc1ccccc1NC(=O)c1ccc(S(=O)(=O)NCc2ccco2)o1 returned GIRK2 act inactive.
Cn1c(=O)c2c(nc3n2CCN3c2ccccc2OCCCO)n(C)c1=O was read as GIRK2 act inactive.
`O=C(NC1CCN(c2ccc(-c3ccccc3F)nn2)C1)c1ccc2c(c1)OCO2` (centres undefined) gave GIRK2 act inactive.
`O=C(Nc1nnc(-c2cc(Cl)sc2Cl)o1)NC1CCCC1` gave GIRK2 act inactive.
Screening Cc1cccc(CCN2CCC(C(=O)c3ccc(NS(C)(=O)=O)cc3)CC2)n1 returned GIRK2 act inactive.
Screening CC(C)CS(=O)(=O)NCC1(O)CCCC1 returned GIRK2 act inactive.
`O=S1(=O)CCC(CNS(=O)(=O)c2ccc(Cl)s2)C1` (centres undefined) gave GIRK2 act inactive.
Cc1ccc(-n2nnc(C(=O)NC(C)c3ccccc3)c2-c2cccnc2)cc1 (centres undefined) was read as GIRK2 act inactive.

Part of the list above in order of formula weight, largest number first:
`O=C(NC1CCN(c2ccc(-c3ccccc3F)nn2)C1)c1ccc2c(c1)OCO2` (centres undefined) gave GIRK2 act inactive.
Screening CCOc1ccccc1NC(=O)c1ccc(S(=O)(=O)NCc2ccco2)o1 returned GIRK2 act inactive.
Cn1c(=O)[nH]c(=O)c2c1nc(NCCCCCC(=O)O)n2Cc1ccccc1 was read as GIRK2 act inactive.
`O=S1(=O)CCC(CNS(=O)(=O)c2ccc(Cl)s2)C1` (centres undefined) gave GIRK2 act inactive.

The list continues:
For CC(=O)N1CCc2c(sc(NC(=O)c3cccc(F)c3)c2-c2nc3ccccc3s2)C1 the results were GIRK2 act inactive.
`CC(C)C(=O)Nc1ccc(C(=O)NCCNS(=O)(=O)/C=C/c2ccccc2)cc1` gave GIRK2 act inactive.
For O=C(NCc1ccccc1)N1CCN(Cc2nc3ccccc3[nH]2)CC1 the results were GIRK2 act inactive.
`Cc1ccc(NC(=O)Cn2nc3c(SC4CCCCC4)nccn3c2=O)cc1` gave GIRK2 act inactive.
Cc1cc(C)c(NC(=O)Cn2cnc3c(C(N)=O)nsc3c2=O)c(C)c1 was read as GIRK2 act inactive.
`CCC(C(=O)NC1CC(O)C(CO)C1)c1ccccc1` (centres undefined) gave GIRK2 act inactive.
For COc1ccc(C)cc1NC(=O)C(=O)NCC1CCN(S(=O)(=O)c2cccnc2)CC1 the results were GIRK2 act inactive.
For O=C(NC(C(=O)N1CCCC1)C12CC3CC(CC(C3)C1)C2)c1ccc(F)cc1 (centres undefined) the results were GIRK2 act inactive.
`O=C(CCc1csc(NC(=O)c2ccc(F)cc2)n1)Nc1ccc2c(c1)OCO2` gave GIRK2 act inactive.
For Cc1ccc(-n2ccc(=O)c(-c3nc(-c4ccc5c(c4)OCO5)no3)n2)cc1C the results were GIRK2 act inactive.
`O=C(N1CCN(CCn2cccn2)CC1)C1(c2ccccc2)CCOCC1` gave GIRK2 act inactive.
For CN(C)CCCn1c(-c2nonc2N)nc2cnccc21 the results were GIRK2 act inactive.

In the list so far, these contain a cyano group:
COc1cc(-c2c(C#N)c(N)nc3c2c(C)nn3-c2ccc(C)cc2)cc(OC)c1OC was read as GIRK2 act inactive.
`COc1ccc(N2C=C(C#N)S(=O)(=O)c3ccccc32)cc1Cl` gave GIRK2 act inactive.

The listing continues:
O=C(Nc1ccc(F)c(F)c1)c1cn(Cc2ccc(NC(=O)C3CCCCC3)cc2)cn1 was read as GIRK2 act inactive.
COc1cc2[nH]c3c(=O)n(CCC(=O)NCc4cccc(Cl)c4)cnc3c2cc1OC was read as GIRK2 act inactive.
CC(C(=O)NCc1cccs1)n1cc(-c2nc(-c3cnccn3)no2)ccc1=O (centres undefined) was read as GIRK2 act inactive.
Cc1cc(=O)[nH]c(-n2nc(-c3ccco3)cc2NC(=O)C23CC4CC(CC(C4)C2)C3)n1 was read as GIRK2 act inactive.
